# HCMV NEC inh – inhibitors of HCMV UL50-UL53 interaction, biochemical, HTRF; HCMV UL50-UL53 nuclear egress complex (human cytomegalovirus); normalized percent inhibition; inhibition, % (concentration not given with the values); 190,000 tested, 0.15% active; AID 1918969, 2023;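 active = both replicates at 50% or more, plus weaker picks with an unusually low signal ratio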;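 also: stock transfer was 100 nL into about 20 µL; 0% = negative control wells and 100% = wells with untagged competitor protein; inactives centre near -12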
# Sa growth inh – S. aureus growth inhibition at 42 and 30 °C, primary screen, LtaS inhibitor project, RN4220, two temperatures; relative growth, % (test concentration not listed); OD600, 20 h, 42 °C; stronger effect = lower value; 170,000 tested, 0.53% active;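 active = growth at 42 °C up to 50% and 20 or more points under that at 30 °C, or under 10% at both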;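 also: 300 nL library stock went into each well; scaled to the means of positive and negative controls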
# GIV Gai3 FP – inhibitors of GIV peptide binding to Galpha-i3, primary screen, biochemical, fluorescence polarization, FITC-GIV GBA peptide, rat Galphai3. 90 min; stronger effect = lower value; scaled: aluminum fluoride 0%, vehicle 100%. AID 1224905, 2016. percent of control (FP), % (concentration not given with the values). 210,000 tested, 0.42% active;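 active = replicate mean at 85% of control or lower, very high polarization wells dropped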;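 also: wells of about 15 µL received 100 nL stock; the first replicate is given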
# Target sequence (P08753 whole entry, looked up): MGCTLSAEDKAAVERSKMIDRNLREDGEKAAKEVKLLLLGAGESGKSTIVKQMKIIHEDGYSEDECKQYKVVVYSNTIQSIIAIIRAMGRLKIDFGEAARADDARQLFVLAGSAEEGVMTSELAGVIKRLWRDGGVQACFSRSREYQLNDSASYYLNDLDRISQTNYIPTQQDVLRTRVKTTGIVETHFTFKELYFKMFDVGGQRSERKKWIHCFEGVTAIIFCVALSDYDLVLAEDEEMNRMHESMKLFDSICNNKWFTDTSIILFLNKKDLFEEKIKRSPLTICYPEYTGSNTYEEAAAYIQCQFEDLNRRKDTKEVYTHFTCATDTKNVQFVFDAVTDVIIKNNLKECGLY
# Sa growth inh second temp – further read-out of Sa growth inh, marked with its call; relative growth, %; measured here: growth at 30 °C;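 optical density after 20 h as mean of two plates; 100% = untreated growth and lower means inhibition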
# Numbers without * were called inactive; · = not tested or not shown.
1. CCN1C(=O)/C(=C/c2ccc(F)cc2)NC1=S
2. COC(=O)c1cc(OCC(=O)c2ccc[nH]2)cc(C(=O)OC)c1
3. Cn1nc(SCC(=O)NN)c(=O)n(C)c1=O
4. O=C(NC1CCCCCCC1)C1=COCCO1
5. O=c1c(NCc2ccccc2)nccn1-c1ccccc1
6. CC1CN(C2CCCCC2)c2nc3c(c(=O)n(CCN4CCOCC4)c(=O)n3C)n2C1 (stereo not drawn)
7. Cc1nn(-c2ccc(N3CCCCC3)nn2)c(C)c1CCC(=O)NCc1ccc(Cl)cc1
8. O=C(COc1ccccc1O)c1cccs1
assay / entry	1	2	3	4	5	6	7	8
HCMV NEC inh	-65	-22	-15	-21	-62	-30	·	24
Sa growth inh	78	92	109	72	117	·	108	100
Sa growth inh second temp	86	72	100	94	83	·	101	99
GIV Gai3 FP	113	·	·	·	105	101	108	·

# A draw from above in order of formula weight, lowest first:
8. O=C(COc1ccccc1O)c1cccs1
4. O=C(NC1CCCCCCC1)C1=COCCO1
1. CCN1C(=O)/C(=C/c2ccc(F)cc2)NC1=S
5. O=c1c(NCc2ccccc2)nccn1-c1ccccc1
2. COC(=O)c1cc(OCC(=O)c2ccc[nH]2)cc(C(=O)OC)c1
6. CC1CN(C2CCCCC2)c2nc3c(c(=O)n(CCN4CCOCC4)c(=O)n3C)n2C1 (stereo not drawn)
7. Cc1nn(-c2ccc(N3CCCCC3)nn2)c(C)c1CCC(=O)NCc1ccc(Cl)cc1
assay / entry	8	4	1	5	2	6	7
HCMV NEC inh	24	-21	-65	-62	-22	-30	·
Sa growth inh	100	72	78	117	92	·	108
Sa growth inh second temp	99	94	86	83	72	·	101
GIV Gai3 FP	·	·	113	105	·	101	108

# (next part)
9. CCC(=O)N(CCC(c1ccccc1)C1CCOC(C)(C)C1)Cc1ccc(OC)cc1 (stereo not drawn)
10. CC(Nc1nc2nonc2nc1NC(C)c1ccccc1)c1ccccc1 (stereo not drawn)
11. CC1(C)CC(=O)c2cc(-c3nc(-c4ccc(Cl)cc4)cs3)c(=O)n(-c3cccc(F)c3)c2C1
12. CC(C)OC(=O)C1C2C=CC3(CN(c4cccc(Cl)c4)C(=O)C13)O2 (stereo not drawn)
13. O=C1CN(C(=O)c2ccc(S(=O)(=O)N3CCCCC3)cc2)C(c2ccc(F)cc2)c2cc(Cl)ccc2N1 (stereo not drawn)
14. Cc1ccc(NC(=O)CC(NC2CCCCC2)C(=O)O)cc1Cl (stereo not drawn)
15. Cc1cn2c(=O)cc(COc3ccc(Cl)cc3)nc2s1
16. CN(CCO)c1cc(Br)c2noc3c2c1C(=O)c1ccccc1-3
assay / entry	9	10	11	12	13	14	15	16
HCMV NEC inh	-3	·	2	-19	-16	-27	-44	-101
Sa growth inh	64	51	105	92	97	90	102	90
Sa growth inh second temp	78	24	95	85	98	85	89	78
GIV Gai3 FP	·	101	101	102	102	100	99	121

17. COC(=O)CSc1c(-c2ccccc2)c2cc(Cl)ccc2[nH]c1=O
18. CC(C)NC(=O)COc1ncnc2ccccc12
19. O=C1c2oc3ccccc3c(=O)c2C(c2ccccc2F)N1Cc1ccc2c(c1)OCO2 (stereo not drawn)
20. Cn1c(SCc2ccccc2)nnc1C1CCCN1C(=O)Nc1ccccc1 (stereo not drawn)
21. O=c1cc(NCC2CCCO2)[nH]c(=O)n1-c1ccc(Cl)cc1 (stereo not drawn)
22. CSc1cccc(NC(=O)CC2SC(=Nc3ccc(F)c(F)c3)NC2=O)c1 (stereo not drawn)
23. Cc1ccccc1CSCC(=O)c1ccc[nH]1
24. C#CCN1C(=O)C(O)(C2CCc3ccccc3C2=O)c2ccccc21 (stereo not drawn)
assay / entry	17	18	19	20	21	22	23	24
HCMV NEC inh	·	-23	-29	-4	3	-1	3	-30
Sa growth inh	119	108	107	103	113	108	93	108
Sa growth inh second temp	80	92	91	83	96	78	95	85
GIV Gai3 FP	96	·	99	96	98	106	·	101

# Next section (2 carried over from the part before).
23. Cc1ccccc1CSCC(=O)c1ccc[nH]1
24. C#CCN1C(=O)C(O)(C2CCc3ccccc3C2=O)c2ccccc21 (stereo not drawn)
25. COc1ccc(NC(=O)C2Cc3ccccc3N2C(=O)c2ccccc2)cc1OC (stereo not drawn)
26. CCCCc1cc(=O)oc2c3c(c(Cl)cc12)OCN(Cc1ccc(OC)c(OC)c1)C3
27. Cc1cc2c(c(=S)[nH]1)C(=O)O/C2=C/c1ccc(Cl)c(Cl)c1
28. CCOC(=O)C1CCCN(S(=O)(=O)c2cccc3nsnc23)C1 (stereo not drawn)
29. Cc1ccc(N2C(=O)C3N=NN(CC(=O)NCc4ccccc4Cl)C3C2=O)cc1C (stereo not drawn)
30. O=C(CSc1nc(-c2ccccc2)no1)Nc1cccc(Cl)c1
31. CN1C(=O)C(c2c(-c3ccc(Br)cc3)[nH]c3c2c(=O)n(C)c(=O)n3C)c2ccccc21 (stereo not drawn)
32. O=C1CCCN2C(=N1)SC(=S)N2CN(Cc1ccccc1)Cc1ccccc1
assay / entry	23	24	25	26	27	28	29	30	31	32
HCMV NEC inh	3	-30	·	·	-11	-124	3	-4	-16	·
Sa growth inh	93	108	102	90	121	103	109	·	·	112
Sa growth inh second temp	95	85	104	82	98	89	96	·	·	82
GIV Gai3 FP	·	101	108	99	·	115	108	104	108	101

33. O=S(=O)(c1ccc(F)cc1)c1nc(-c2ccc(Cl)cc2)oc1N1CCOCC1
34. O=C(OCCOc1ccccc1)c1cccc(OC(F)F)c1
35. CCCSc1ncc(Cl)c(C(=O)Nc2c(C(=O)Nc3ccccc3)oc3ccccc23)n1
36. Cc1ccc(Cn2c(N(C)C)nc3c2c(=O)[nH]c(=O)n3C)cc1
37. COCCNC(=O)C1Cc2ccccc2N1C(C)=O (stereo not drawn)
38. Cn1nc(C(=O)N2CCCSC2=Nc2ccccc2)c2ccccc2c1=O
39. O=c1[nH]cccc1-c1nc(-c2cccc(F)c2)no1
40. CCC(C)NC(=O)CCc1nc(-c2nn(-c3ccccc3)c(=O)n(C)c2=O)no1 (stereo not drawn)
assay / entry	33	34	35	36	37	38	39	40
HCMV NEC inh	-14	11	-9	·	-22	-26	-8	-113
Sa growth inh	·	113	105	96	·	89	·	·
Sa growth inh second temp	·	93	82	86	·	97	·	·
GIV Gai3 FP	105	·	104	104	99	·	104	107

41. CC1c2cccn2CCN1C(=O)NC1CCCCC1 (stereo not drawn)
42. O=C(OCc1ccccc1)c1cccnc1
43. Cc1ccc(N2CC(C(=O)N(Cc3ccccc3)c3ccccn3)CC2=O)cc1 (stereo not drawn)
44. Cc1nn(-c2nc(-c3ccccc3)cc(C(F)(F)F)n2)c(C)c1Cl
45. Fc1ccccc1-n1ncc2c1ncn1nc(-c3ccccc3)nc21
46. O=C(O)CSc1nc2ccccc2c(=O)[nH]1
47. CN1CCN(CCC(=O)Nc2ccc(Cl)cc2)CC1
48. O=c1nc(SCCc2ccccc2)nc2ccccn12
assay / entry	41	42	43	44	45	46	47	48
HCMV NEC inh	6	-4	-16	-6	2	-11	-16	2
Sa growth inh	108	112	104	92	97	100	112	108
Sa growth inh second temp	93	106	93	80	92	90	87	86
GIV Gai3 FP	108	·	105	106	102	·	103	108

49. O=c1cc(Cn2cc(C(F)(F)F)cc(Cl)c2=O)[nH]c(=O)[nH]1
50. COCCCNC(=O)c1cnn(-c2ccc(F)cc2F)c1C1CCNCC1
51. COc1ccc(OC)c(CNC(=O)CN2CC(C)Sc3ccccc32)c1 (stereo not drawn)
52. CC1N(C)c2cc(NC(=O)c3ccco3)c(P(=O)(Nc3cccc(C(F)(F)F)c3)N3CCOCC3)cc2C1(C)C (stereo not drawn)
53. CC(=O)N/C(=C\c1ccccc1)C(=O)NCc1ccco1
54. OC(CSc1cccs1)CN1CCN(C(c2ccccc2)c2ccccc2)CC1 (stereo not drawn)
55. COc1ccc(C2C=C(C)Nc3nc4ccccc4n32)cc1 (stereo not drawn)
56. O=C(CSc1ncccn1)N1CCCC1
assay / entry	49	50	51	52	53	54	55	56
HCMV NEC inh	-19	·	·	-13	-23	-15	-10	-12
Sa growth inh	92	104	98	82	94	99	110	103
Sa growth inh second temp	93	101	93	94	93	99	95	94
GIV Gai3 FP	·	102	104	·	99	110	·	101

57. COc1ccc(Cc2nc(S(=O)(=O)c3ccc(C)cc3)c(N3CCC(C)CC3)o2)cc1
58. COc1ccc(N2CCN(c3c4c(nc5ncnn35)CCC4)CC2)cc1
59. N#CCCC1CCCCCCCCCCC1=O (stereo not drawn)
60. COc1cc(C2CC(=O)Nc3nc(SC)[nH]c(=O)c32)ccc1OCC(N)=O (stereo not drawn)
61. COC(=O)c1cc(NC(=O)COC(=O)CN2C(=O)C3CC=CCC3C2=O)cc(C(=O)OC)c1 (stereo not drawn)
62. COc1ccc(F)cc1S(=O)(=O)NCC(c1ccco1)S(=O)(=O)c1ccc(F)cc1 (stereo not drawn)
63. O=C(OCCCc1nc2ccccc2[nH]1)c1cccs1
64. CCc1nc2c(oc3ccccc32)c(=O)[nH]1
assay / entry	57	58	59	60	61	62	63	64
HCMV NEC inh	0	0	-38	-22	-19	·	-8	-24
Sa growth inh	101	·	90	99	84	108	75	106
Sa growth inh second temp	103	·	85	80	83	92	76	80
GIV Gai3 FP	110	104	104	99	·	95	112	99

# Filtered by structure, the compounds so far with bromine
16. CN(CCO)c1cc(Br)c2noc3c2c1C(=O)c1ccccc1-3
31. CN1C(=O)C(c2c(-c3ccc(Br)cc3)[nH]c3c2c(=O)n(C)c(=O)n3C)c2ccccc21 (stereo not drawn)
assay / entry	16	31
HCMV NEC inh	-101	-16
Sa growth inh	90	·
Sa growth inh second temp	78	·
GIV Gai3 FP	121	108

# More structures follow.
65. CC1CN(CC(=O)N2CCCCC2)c2ccccc2S1 (stereo not drawn)
66. COC(=O)/C(=C/c1ccc2c(c1)OCO2)NC(=O)c1ccco1
67. CC(=O)c1ccc(NC(=O)Nc2sc3nc4n(c(=O)c3c2C)CCC(C)CC4)cc1 (stereo not drawn)
68. CC1CCC(NC(=O)c2ccc(CSc3nc4ccncc4[nH]3)cc2)CC1 (stereo not drawn)
69. COc1ccccc1N1CCN(C(=O)C2CCCN2C(N)=O)CC1 (stereo not drawn)
70. COc1ccc(OC)c(CNC(=O)c2ccc3c(c2)nnn3Cc2ccccc2)c1
71. CC(=O)NCc1c(-c2c(Cl)cccc2Cl)noc1C
72. CN(C(=O)c1cc2ccccc2o1)c1c(N)n(Cc2ccccc2)c(=O)[nH]c1=O
assay / entry	65	66	67	68	69	70	71	72
HCMV NEC inh	-30	-35	-30	·	2	-20	-11	-20
Sa growth inh	·	112	132	101	89	·	107	85
Sa growth inh second temp	·	97	86	83	102	·	88	81
GIV Gai3 FP	107	153	101	102	·	107	100	·

73. CC(Sc1nnnn1C)C(=O)C12CC3CC(CC(C3)C1)C2 (stereo not drawn)
74. CCCSc1nn(C)c2nc3c(c(=O)n12)C(C)(C)Cc1ccccc1-3
75. COc1ccc(NC(=O)C2Nc3cc(F)ccc3S(=O)(=O)N2)cc1 (stereo not drawn)
76. CC(=O)N1CCN(C(=O)CSc2nc3ccc(Cl)cc3c(=O)n2-c2ccc(F)cc2F)CC1
77. O=C(c1ccc(CS(=O)c2ccccc2)o1)N1CCN(c2ccccc2F)CC1 (stereo not drawn)
78. CCOC(=O)c1c(C)oc2nc(C)nc(NC(C)c3ccccc3)c12 (stereo not drawn)
79. CCCNC(=O)c1ccc2c(c1)N(Cc1ccccc1)CCS2
80. CCOC(=O)c1[nH]c(COC(=O)[C@H](Cc2ccccc2)NC(=O)c2ccco2)c(C(=O)OCC)c1C
81. CN=C1c2cc3cc(OC)ccc3n2CCN1Cc1ccccc1
82. CC(=O)N(CCCCN1C(=O)c2ccccc2C1=O)c1ccc(Cl)cc1
assay / entry	73	74	75	76	77	78	79	80	81	82
HCMV NEC inh	-36	-11	-15	35	5	·	2	1	-63	-64
Sa growth inh	103	·	·	94	107	84	107	101	100	86
Sa growth inh second temp	84	·	·	95	97	97	95	87	80	87
GIV Gai3 FP	·	102	102	·	107	106	106	·	111	98
